Assay outcomes from PubChem BioAssay.
NPYLR7 agonist: agonists of mosquito NPYLR7 receptor, primary screen, cell-based, Aedes aegypti, calcium fluorescence, mosquito biting behavior; HEK293T NPYLR7/Galpha15, GCaMP6s calcium fluorescence; activation, % at 10 µM; 0.15% of 270,000 active; AID 1259423, 2018; in the data active means activation above about 40%;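 further: 0% = vehicle and 100% = reference agonist at the receptor; some compounds past the cut are filed as inactive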
NPYLR7 agonist max-min: further read-out of NPYLR7 agonist, marked with its call; activation, %; measured here: Max-Min RFU normalised activation; some inactives read as strong as hits;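 span of the calcium signal over five minutes; 0% = vehicle and 100% = native peptide agonist; compound fluorescence can raise it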
An asterisk follows results filed as active. These rows are one share of the data; count on the stated rates, not on these rows.

Start of the listing, in advance:
SMILES	NPYLR7 agonist	NPYLR7 agonist max-min
Nc1nc(CSc2nnnn2C2CCCC2)nc(Nc2ccc(F)cc2)n1	17	13
COc1cccc(-c2noc(CSc3ncnc4sccc34)n2)c1	17	5
Cc1ccn2c(NC(=O)C(C)(C)C)c(-c3cccc(Cl)c3)nc2c1	-9	2
CC(Oc1ccc(Cl)cc1)C(=O)N1CCC(C(=O)c2ccc(O)cc2)CC1 (centres undefined)	0	-1

Results, previewed entries included:
SMILES	NPYLR7 agonist	NPYLR7 agonist max-min
Nc1nc(CSc2nnnn2C2CCCC2)nc(Nc2ccc(F)cc2)n1	17	13
COc1cccc(-c2noc(CSc3ncnc4sccc34)n2)c1	17	5
Cc1ccn2c(NC(=O)C(C)(C)C)c(-c3cccc(Cl)c3)nc2c1	-9	2
CC(Oc1ccc(Cl)cc1)C(=O)N1CCC(C(=O)c2ccc(O)cc2)CC1 (centres undefined)	0	-1
CC(C)N(Cc1cccc(OS(=O)(=O)c2cccc(C(F)(F)F)c2)c1)C(=O)c1ccc([N+](=O)[O-])cc1Cl	11	12
CCOC(=O)C1=C(C)NC(=O)NC1c1ccc(O)c(OCC)c1 (centres undefined)	4	3
CC=CC(=O)OCC(=O)NC(=O)NC(C)(C)C	2	0
CCCCn1c(N)c(N(CCC(C)C)C(=O)NCC)c(=O)[nH]c1=O	8	13
COc1ccccc1NC(=O)N1CCCC(Cn2cc(CCO)nn2)C1 (centres undefined)	12	6
CC(C)N(CCSc1nc2cc(S(=O)(=O)N3CCOCC3)ccc2n1CC1CCCO1)C(C)C (centres undefined)	9	8
CCn1c(C2CCNCC2)nn(CCCc2ccccc2)c1=O	4	4
Cn1c(=O)n(Cc2ccc(F)cc2)c(=O)c2c1nc1oc(C(C)(C)C)cn12	-6	-6
O=C(Cc1cc2c(cc1Cl)OCCO2)NCc1cccnc1-n1ccnc1	0	-6
COc1ccc(CCN(C)C(=O)c2cc(-c3ccccc3F)nn2-c2ccc(Cl)cc2)cc1OC	5	6
CCC(C)n1c(=O)[nH]c2c1c(=O)n(C)c(=O)n2C (centres undefined)	15	4
CC(C)c1ccc(NC(=O)CSc2nc(=O)n(CCN3CCOCC3)c3c2CCCC3)cc1	-1	5
C=CCn1c(SCc2ccc(Cl)c(Cl)c2)nnc1-c1ccc(F)cc1	17	24
CC(C)(C)N(CC(=O)N1CCc2sccc2C1c1ccccc1)C(=O)c1cccc(Cl)c1 (centres undefined)	2	10
c1csc(NC2CCCCC2)n1	-11	-18
CCOCC(=O)Nc1ccc(-c2cn3ccsc3n2)cc1	-4	-5
CC(=O)c1cccc(NC(=O)/C=C/c2ccc([N+](=O)[O-])s2)c1	-1	-2
O=C(c1cc(-c2ccco2)nn1-c1ccc(Cl)c(Cl)c1)N1CCN(Cc2ccccc2)CC1	-2	8
Cc1cc(/C=C2\SC(=Nc3ccccc3Cl)NC2=O)c(C)n1-c1ccccc1	1	-7
COc1cc([N+](=O)[O-])ccc1N=Cc1nc(-c2ccccc2)oc1O	-3	-8
CNS(=O)(=O)c1cc(C(=O)NCC(C)c2ccsc2)c(C)o1 (centres undefined)	2	-7

Three compounds drawn at random from those above:
SMILES	NPYLR7 agonist	NPYLR7 agonist max-min
Cc1cc(/C=C2\SC(=Nc3ccccc3Cl)NC2=O)c(C)n1-c1ccccc1	1	-7
CC(C)c1ccc(NC(=O)CSc2nc(=O)n(CCN3CCOCC3)c3c2CCCC3)cc1	-1	5
Cc1ccn2c(NC(=O)C(C)(C)C)c(-c3cccc(Cl)c3)nc2c1	-9	2

Following part
SMILES	NPYLR7 agonist	NPYLR7 agonist max-min
Cc1cc2ncn(C(=O)N3CCC(C)CC3)c2cc1C	-6	-9
COc1cc(C(C2Sc3ncnn3C2=O)N2CCN(Cc3ccccc3)CC2)cc(OC)c1OC (centres undefined)	-4	-3
Nc1ncncc1-c1noc([C@@H]2CCCN2Cc2ccc(CO)o2)n1	-10	-16
Cc1nc(Cc2nnc(SCC(=O)NN3C(=O)NC4(CCCCC4)C3=O)o2)cs1	0	-3
CC(=O)c1cc2c(cc1N1C(=O)C3C4C=CC(C4)C3C1=O)OCO2 (centres undefined)	-10	-14
CCCc1nc(N2CCN(C(=O)Nc3ccc(Cl)c(Cl)c3)CC2)c2c(C)nn(-c3ccccc3)c2n1	11	15
C=C(C)Cn1c(N2CCN(Cc3ccccc3Cl)CC2)nc2c1c(=O)[nH]c(=O)n2C	-7	-7
O=C1C2C3CC(C(Br)C3Br)C2C(=O)N1c1cccc(O)c1 (centres undefined)	-4	-8
COc1ccc(C(=O)CSc2nccn(-c3cccc4ccccc34)c2=O)cc1	12	5
CCN(CC)c1onc(-c2ccccc2)c1CN(CCOC)C(=O)c1cccc(C(F)(F)F)c1	2	1
CC(C)S(=O)(=O)N1CCCC(OCc2ccccc2Cl)C1 (centres undefined)	-8	-1
N#CNC(=Nc1ccccc1)SCc1ccccn1	-7	-7
C=C[C@@]1(C)CC(=O)[C@@]2(O)[C@](C)(O1)[C@@H](OC(C)=O)[C@@H](O)C1C(C)(C)CC[C@H](O)[C@@]12C (some centres undefined)	-14	-22
COc1ccc(CC2CN(C(=O)CCCn3cnnn3)CCO2)cc1 (centres undefined)	5	2
CCCCC(=O)Nc1cccc(C(=O)N2C[C@H](O)[C@@H](N3CCCC3)C2)c1	6	3
CC(C)(C)c1cc(NC(=O)c2cnsn2)n(C(C)(C)C)n1	-8	-7
COCCn1c(N)c(C(=O)OCC(C)C)c2nc3ccccc3nc21	2	6
COc1cccnc1NS(=O)(=O)c1ccc2c(c1)C(=O)NC2=O	2	3
CCOc1ccc(C2c3cccn3CCCN2Cc2ccccn2)cc1 (centres undefined)	-1	4
COc1ccccc1C(=O)N(Cc1cccnc1)c1nc2cc(C)c(C)cc2s1	-2	-4
CCCCN(Cc1cccn1Cc1ccc(Br)cc1)C(=O)CN(C(=O)COc1ccccc1)C(C)CC (centres undefined)	-3	7
O=c1c(N=Nc2ccc3c(c2)OCCO3)c(-c2ccccc2)[nH]n1-c1ccccc1	-5	-4
Cc1cccc(C(=O)N2CCN(Cc3cc(=O)c(OCc4ccc(-c5ccccc5C#N)cc4)co3)CC2)c1C	16	9
Cc1ncc(-c2c(-c3ccccc3)ncn2Cc2noc(C3CC3)n2)s1	20	7
Cc1nnnn1-c1cccc(C(=O)N2CCC(c3cc(C(C)C)n[nH]3)CC2)c1	-3	-7

Some of the entries above, reformatted:
CC(C)(C)c1cc(NC(=O)c2cnsn2)n(C(C)(C)C)n1
  NPYLR7 agonist: -8 | NPYLR7 agonist max-min: -7

COCCn1c(N)c(C(=O)OCC(C)C)c2nc3ccccc3nc21
  NPYLR7 agonist: 2 | NPYLR7 agonist max-min: 6

COc1cccnc1NS(=O)(=O)c1ccc2c(c1)C(=O)NC2=O
  NPYLR7 agonist: 2 | NPYLR7 agonist max-min: 3

CCOc1ccc(C2c3cccn3CCCN2Cc2ccccn2)cc1 (centres undefined)
  NPYLR7 agonist: -1 | NPYLR7 agonist max-min: 4

(list continues)
SMILES	NPYLR7 agonist	NPYLR7 agonist max-min
COc1cc(/C=C2N=C(/C=C/c3ccccc3)OC/2=O)ccc1OC(C)=O	0	-5
CON1C(=O)c2ccccc2NC12CCN(Cc1cccn1S(=O)(=O)c1ccccc1)CC2	0	13
CCN(CCc1ccccn1)C(=O)c1cc(-c2cnc(N)nc2)nc2c(C)cccc12	0	-5
CC(C)(CO)C(OS(C)(=O)=O)C(=O)NCCC#N (centres undefined)	0	-5
Cn1ccnc1C(NC(=O)Cc1ccccc1F)c1ccccc1 (centres undefined)	5	2
CN(C(=O)COc1ccc(C(N)=O)cc1)C1Cc2ccccc2C1	6	6
c1cnc2c(OCCN3CCCCC3)cccc2c1	-22	-25
CC(=O)Nc1ccnn1C1CCN(Cc2cccc(OC3CCCC3)c2)CC1	14	4
CCOC(=O)CCCCCC(=O)N1CCc2c([nH]c3ccc(OC)cc23)C1c1ccc(COC(C)=O)o1 (centres undefined)	0	-8
CCOc1ncccc1CN1CCCC(C(=O)NC(c2ccccc2)c2ccccc2)C1 (centres undefined)	-6	-12
Cc1ccc(OCCNC(=O)NC(C)c2cccs2)c(C)c1 (centres undefined)	14	10
Cc1ccccc1C(=O)N=Nc1c(O)[nH]c2ccc(C)c(Br)c12	-6	-8
COc1cccc(C(CN2CCN(S(=O)(=O)c3cn(C)c(C)n3)CC2)OCc2cccc(Cl)c2)c1 (centres undefined)	-1	2
CC1CCCCN1CC(=O)N1N=C(c2ccc(F)cc2)CC1c1ccco1 (centres undefined)	0	8
Cc1ccc(F)cc1CC(=O)NCCn1ncc2ccccc2c1=O	6	2
Cc1nn(C)cc1-c1ccnc(N(C)Cc2cccc(CN(C)C)c2)n1	10	1
Cc1nsc(N)c1C(=O)OCC(=O)N(c1ccccc1)C(C)C	1	0
O=C(NCCc1csc2nc(-c3ccc(Cl)cc3)nn12)c1ccc2ccccc2c1	9	6
O=C(O)c1cc(C2=CCCCC2)cc(S(=O)(=O)NCc2ccccn2)c1	-1	-6
C=CCn1c(=NC(=O)C2=COCCO2)sc2cc(S(C)(=O)=O)ccc21	6	1
NCC(O)C(O)C(O)c1cnn(-c2ccccc2)n1 (centres undefined)	-6	-7
O=C(CCc1ccccc1)N1CCCC(CNS(=O)(=O)c2cccs2)C1 (centres undefined)	11	6
O=C(N=Nc1c(O)[nH]c2ccccc12)c1cccs1	-3	-1
O=C(NCC1CCS(=O)(=O)C1)c1cccnc1Oc1cccc(Br)c1 (centres undefined)	9	6
CCc1nc2ccc(C(=O)NCc3ccccc3OC)cn2c1N(CC)Cc1ccc2c(c1)OCCO2	18	17

Compound profiles, from the list above. Order of values: NPYLR7 agonist, NPYLR7 agonist max-min
CCN(CCc1ccccn1)C(=O)c1cc(-c2cnc(N)nc2)nc2c(C)cccc12 in the list: 0, -5
Cc1nsc(N)c1C(=O)OCC(=O)N(c1ccccc1)C(C)C in the list: 1, 0

Next section.
SMILES	NPYLR7 agonist	NPYLR7 agonist max-min
CCCCC(CC)CN1CCc2[nH]nc(C3CC3)c2C1 (centres undefined)	14	0
Cc1ccc(C(=O)COC(=O)C23CCC(=O)N2CCS3)cc1C (centres undefined)	2	5
COCCn1c(C)cc(O)c(C(c2ccc(OC)c(OC)c2)N2CCCCC2)c1=O (centres undefined)	9	1
O=C(Oc1ccc(/C=C/c2ccncc2)cc1)c1ccc(Br)o1	-7	-9
Cc1nnc(NC(=O)c2ccc(NC(=O)C(F)(F)F)cc2)s1	-9	-12
CCc1oncc1C(=O)N1CCC(N2CCCC(C(=O)N3CCCC3)C2)CC1 (centres undefined)	-9	-12
CCC1C(=O)N(C)CCN1C(=O)c1cc(COc2ccccc2OC)[nH]n1 (centres undefined)	-1	-2
COc1ccccc1/C=C/C1=NC(=C\c2ccc(F)cc2)/C(=O)O1	0	-5
CC(O)CC(C)CNC(=O)c1c(O)cccc1Cl (centres undefined)	7	4
C=CC[C@@H]1CC=C[C@@H](CC=C)N1C(=O)c1cc2n(n1)CCCN(C(C)=O)C2	1	-6
CCOC(=O)c1cc(-c2cccc(NC(=O)c3c(F)cc(OC)cc3F)c2)n(-c2ccccc2OC)n1	-5	-5
Cc1c(C)n2c3c(=O)n(CC(=O)C(C)(C)C)c(=O)n(C)c3nc2n1C(C)c1ccccc1 (centres undefined)	0	-2
Cn1cc(Cl)cc1C(=O)O	6	14
CC/C=C\CCc1c(-c2ccccc2)ncn1CC1CCN(C)C1 (centres undefined)	15	11
CCOC(=O)c1c(NC(=O)c2cc(C)oc2C)sc2c1CCC2	13	6
Cc1cc(NC(=O)c2ccno2)n(-c2nc3c(F)cccc3s2)n1	-6	-6
CCOC(=O)c1nn(-c2ccccc2C)c(=O)cc1NC(C)c1ccccc1 (centres undefined)	4	0
